# Lassa entry inh: qHTS for Inhibitors of binding or entry into cells for Lassa Virus; Lassa virus pseudotype entry inhibition, cell reporter; control for the full effect not named in the record; Potency, µM (titrated, usually from 37.9 µM), inactives show at the highest dose activity change, negative = inhibition, hits mostly inhibitors; actives 1.2% (n = 300,000); active means well fitted inhibition curve with a large enough effect; inconclusive means small, poorly fitted or top-dose-only effect, or effect the other way; inactive means flat fitted curve, though single readings scatter; tested in HEK293 cells; note: % is set by controls: 0 for no effect and ±100 for the full control effect; nearly all actives have a fitted effect of over 50% in size; luciferase read-out
# Cruzain inh Det: qHTS Assay for Promiscuous and Specific Inhibitors of Cruzain (with detergent). purified cruzain, Z-FR-AMC fluorescence, 0.01% Triton. Cruzipain (Trypanosoma cruzi), P25779. AID 1478, 2009. Potency, µM, inactives show max response, negative = inhibition, most hits filed as inhibitors. actives 0.43% (n = 200,000);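 note: plate controls were neutral wells for no effect and buffer without enzyme for full effect; nearly all actives have a fitted effect of over 40% in size; top concentration of the series not given in the record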
# Target sequence (P25779 123-467 limits assumed): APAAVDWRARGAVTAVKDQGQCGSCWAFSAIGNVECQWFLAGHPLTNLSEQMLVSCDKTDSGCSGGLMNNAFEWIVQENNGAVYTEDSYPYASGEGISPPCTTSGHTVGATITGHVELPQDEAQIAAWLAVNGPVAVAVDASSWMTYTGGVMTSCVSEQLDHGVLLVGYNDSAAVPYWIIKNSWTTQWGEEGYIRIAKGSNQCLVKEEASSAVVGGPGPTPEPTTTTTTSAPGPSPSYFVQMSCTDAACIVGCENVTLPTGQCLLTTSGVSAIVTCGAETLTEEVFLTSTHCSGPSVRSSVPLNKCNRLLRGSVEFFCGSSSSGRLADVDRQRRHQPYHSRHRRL
#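 Z-FR-AMC hydrolysis (2 uM substrate) by cruzain (1.5 nM) monitored kinetically at ex 360/em 450 nm after 15 min room-temperature compound exposure; 0.01% Triton X-100, pH 5.5, 5 mM DTT.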
# RE007 growth inh: qHTS Assay for Inhibitors of the HIV-1 protein Vpr | Potency, µM (series often up to 92.2 µM), without a hit: top-dose activity change, negative = less growth | AID 651644, 2012 | S. pombe RE007 Vpr strain, BacTiter-Glo ATP luminescence, 24 h; control for the full effect not named in the record | actives 0.21% (n = 360,000); active = well fitted falling curve with a large enough effect; inconclusive = small, poorly fitted or top-dose-only effect; inactive = no such curve, though single readings can be large or run the other way;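 note: % is set by controls: 0 for no effect and ±100 for the full control effect; nearly all actives have a fitted effect of over 50% in size; the assay follows cell death caused by Vpr and the record does not say whether a fall means rescue or toxicity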
#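 Fission yeast strain RE007, carrying one chromosomally integrated HIV-1 vpr copy, was seeded at OD 0.01 in PMG+AL medium with 23 nL pinned compound. After 24 h at 30 °C and 99% humidity, viability was read by BacTiter-Glo luminescence.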
# SARS PLP yeast: qHTS of Yeast-based Assay for SARS-CoV PLP. Potency, µM (doses to about 32.9 µM), for the others: at the highest dose activity, positive = growth rescue. S. cerevisiae expressing SARS-CoV PLpro, growth rescue; control for the full effect not named in the record. actives 0.19% (n = 330,000); active means well fitted rising curve with a large enough effect; inconclusive means small, poorly fitted or top-dose-only effect; inactive means no such curve, though single readings can be large or run the other way; note: 0% is about no effect; nearly all actives have a fitted effect of over 55% in size; growth read by luminescence after 48 h
# MARV entry inh: qHTS for inhibitors of binding or entry into cells for Marburg Virus. actives 1.8% (n = 300,000). Marburg virus pseudotyped entry inhibition, cell reporter; control for the full effect not named in the record; about a third of the inactives were read at about 46 µM. Potency, µM (series often up to 37.8 µM), for the others: top-dose activity change, negative = inhibition, usual class: inhibitors; active = well fitted inhibition curve with a large enough effect; inconclusive = small, poorly fitted or top-dose-only effect, or effect the other way; inactive = flat fitted curve, though single readings scatter; tested in HEK293 cells; about a fifth of its hits are not listed in these tables; note: % is set by controls: 0 for no effect and ±100 for the full control effect; luciferase read-out
# 2A StopGo: High Throughput Screening for Foot and Mouth Disease Virus Antivirals | Potency, µM (doses to about 57.9 µM), for inactives: at the highest dose signal change, negative = less light | AID 1159524, 2015 | human cells with a luciferase reporter of 2A StopGo recoding; control for the full effect not named in the record | actives 1.2% (n = 410,000); active = well fitted falling curve with a large enough effect; inconclusive = small, poorly fitted or top-dose-only effect; inactive = no such curve, though single readings can be large or run the other way; tested in HEK293T cells; note: % is set by controls: 0 for no effect and ±100 for the full control effect; nearly all actives have a fitted effect of over 45% in size; luciferase light after 4 h
# NS1 inh: qHTS Assay for Inhibitors of Influenza NS1 Protein Function | actives 0.4% (n = 270,000) | Potency, µM (series often up to 46.1 µM), inactives show top-dose activity, positive = more growth | S. cerevisiae slowed by influenza A NS1, growth recovery by OD600; active means well fitted rising curve with a large enough effect; inconclusive means small, poorly fitted or top-dose-only effect; inactive means no such curve, though single readings can be large or run the other way; note: nearly all actives have a fitted effect of over 50% in size
#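 Compounds were scored for reversing the slow growth caused by influenza A NS1 in S. cerevisiae, measured by optical density at 600 nm. Assay medium contained 2% galactose at pH 6.0; NS1-free yeast of the same strain were the positive control.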
# Cruzain inh noDet: qHTS Assay for Promiscuous and Specific Inhibitors of Cruzain (without detergent) | Cruzipain (Trypanosoma cruzi), P25779 | purified cruzain, Z-FR-AMC fluorescence, no detergent | Potency, µM, without a hit: max response, negative = inhibition, most hits filed as inhibitors | actives 2.3% (n = 200,000);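 note: plate controls were enzyme without inhibitor for no effect and buffer without enzyme for full effect; nearly all actives have a fitted effect of over 40% in size; top concentration of the series not given in the record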
#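 Purified cruzain at 1.5 nM, pre-incubated 15 min with compound at room temperature in 100 mM sodium acetate pH 5.5, 5 mM DTT, 0.00005% Triton X-100. Reaction started with 2 uM Z-FR-AMC; AMC fluorescence increase over 60 s gives rate.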
# * marks the source's active call; other numbers are inactive results; ? = inconclusive; / = no result given; & = joins results of further samples; [ ] = another dose, or the depositor's remark. Unless noted, calls come from the whole dose curve; as a rule, active = well fitted curve in the direction sought with a large enough effect; inconclusive = small, poorly fitted or top-dose-only effect, or another doubt; inactive = no such curve, though single readings can be large; an effect the other way counts as inactive or inconclusive. Potency is the fitted concentration of half-maximal effect.
no.	Compound	NS1 inh	SARS PLP yeast	RE007 growth inh	Cruzain inh Det	Cruzain inh noDet	MARV entry inh	Lassa entry inh	2A StopGo
1	Cc1onc(-c2c(Cl)cccc2Cl)c1C(=O)N1CCCc2ccccc21	-49%	-31%	9%	-2.5%	-8%	?	?	/
2	COc1ccc(C)cc1S(=O)(=O)Nc1ccccc1	-1%	-6%	2%	-4.3%	-3%	-13%	1%	103%[activator]
3	CCOc1ccc2[nH]c3c(N4CCN(c5ccccn5)CC4)ncnc3c2c1	-115%	-6%	13%	-4.6%	13%	?	?	?
4	CC[C@]12c3[nH]c4ccc(Cl)cc4c3CCN1C(=O)[C@@H](CC(=O)NCCCn1ccnc1)C[C@@H]2C(=O)N1CCN(C(=O)c2ccco2)CC1	/	-10%	-10%	/	/	0%	/	-10%
5	COc1ccc(NC(=O)NNS(=O)(=O)c2ccc(Br)cc2)cc1	2%	3%	6%	/	/	22%	25%	-1%
6	CCCCCCC(=O)Nc1c(O)c2ccccc2[nH]c1=O	-9%	12%	-18%	-0.6%	?	-25%	1%	0%
7	Cc1ccc(C2(C(F)(F)F)NC(=O)N3CCN=C3S2)cc1 (stereo not drawn)	7%	0%	-7%	4.2%	-6%	?	?	-21%
8	COc1cc(/C=C2\S/C(=N/S(=O)(=O)Cc3ccccc3)NC2=O)c([N+](=O)[O-])cc1OC	17%	1%	0%	/	/	/	/	28%
9	CN(CC(=O)N1CCc2[nH]c3ccc(F)cc3c2C1)CC1OCCO1	-1%	13%	-1%	1.8%	-5%	0%[46.1 µM]	-3%	-11%
10	O=C(NCC1CCCO1)/C(=C\c1cccc([N+](=O)[O-])c1)NC(=O)c1ccccc1 (stereo not drawn)	/	2%	34%	/	/	-9%[46.1 µM]	1%	-3%
11	Cc1sc2ncnc(SCC(=O)c3ccc(Cl)s3)c2c1C	7.1µM*	6%	/	-2.0%	10µM*	/	/	/
12	Cc1ccc(NC(=O)C(Cc2ccccc2)NS(=O)(=O)c2ccc3c(c2)oc(=O)n3C)c(Cl)c1 (stereo not drawn)	/	/	/	-0.3%	-7%	-27%[46.1 µM]	21%[46.1 µM]	2%
13	OCCn1ccc(-c2ccccc2OCc2ccc(F)cc2)n1	2%	0%	7%	/	/	-15%[46.1 µM]	-10%[46.1 µM]	-8%
14	COCCCNC(=O)c1ccc(CS(=O)(=O)c2cccc(C(F)(F)F)c2)o1	7%	2%	-5%	/	/	3%[46.1 µM]	?	5%
15	COc1cc(NC(=O)c2cccs2)cc(OC)c1	-46%	-9%	-10%	-4.5%	1%	16%	-1%	7%
16	O=C(O)c1ccccc1-c1ccccc1C(=O)Nc1ccccc1Br	18%	-2%	-1%	/	/	/	/	-4%
17	O=C(Nc1cccc(F)c1)c1cccnc1N1CCOCC1	-6%	-1%	2%	-1.7%	-7%	0%	-10%	-18%
18	O=C(OCC(=O)c1ccc([N+](=O)[O-])cc1)/C(=C/c1ccc(Cl)cc1)NC(=O)c1ccccc1	-5%	-7%	4%	2.8µM*	16µM*	2%	6%	0%
19	COc1ccc(NC(=O)CSc2nc(NS(=O)(=O)c3ccc(C)cc3)cc(=O)[nH]2)cc1	8%	3%	-7%	-2.1%	1%	-6%&-6%	-23%	-9%
20	COCCCN(C(=O)CSCc1c(C)noc1C)c1c(N)n(Cc2ccccc2)c(=O)[nH]c1=O	/	3%	-8%	/	/	23%	?	10%
21	COc1ccc(OC)c(CNC(=O)Cn2nc(C)c3c(C)n(-c4ccccc4)nc3c2=O)c1	/	/	/	-2.6%	-9%	/	-7%[46.1 µM]	0%
22	Cc1cnc(C(=O)Nc2cccc(S(=O)(=O)N(C)C)c2)cn1	3%	-5%	4%	-1.2%	11%	-3%	11%	-6%
23	O=C(Cc1ccccc1)N1CCN(C(=O)c2ccco2)CC1	-11%	11%	0%	0.8%	4%	0%	2%	5%
24	CC(C)OCC(O)CS(=O)Cc1ccccc1 (stereo not drawn)	2%	3%[6.58 µM]	1%	2.9%	3%	-2%	-6%	/
25	COC(=O)CSc1nnc(-c2ccco2)o1	-10%	-8%	-3%	-2.5%	3%	13%	18%	-1%
26	O=S(=O)(c1cnc[nH]1)N1CCN(c2ccc(Cl)cc2)CC1	5%	5%	6%	3.1%	?	/	/	-26%
27	CCC(C)(C)C1CCC2(CC1)NC(=O)N(CC(=O)Nc1nc(-c3ccc(C)cc3)cs1)C2=O (stereo not drawn)	4%	9%	7%	-5.7%	?	?	?	-16%
28	COc1ccc(CC(=O)N2CCN(S(=O)(=O)c3cccs3)CC2)cc1OC	3%	1%	24%	/	/	/	/	-10%
29	C=CCn1c(-c2ccc(Cl)cc2)cnc1SC(C)C(=O)NC(N)=O (stereo not drawn)	/	1%	15%	/	/	-8%[46.1 µM]	-5%	?
30	O=C(CSc1nnc2ccc(-c3ccc(F)cc3)nn12)NCC1CCCO1 (stereo not drawn)	/	0%	23%	/	/	3%[46.1 µM]	?	-13%
31	OCCSc1nc(-c2ccccc2)nc2ccc(F)cc12	-1%	-3%	7%	/	/	/	/	0%
32	COc1ccc(C2Nc3ccccc3C(=O)N2O)cc1OC (stereo not drawn)	-2%	-1%	10%	-6.3%	-6%	-23%	13%	-3%
33	O=C(OCc1c(F)cccc1Cl)c1cccc(S(=O)(=O)N2CCOCC2)c1	/	-8%	20%	/	/	-8%	-16%	41%[activator]
34	Cc1cc(/C=C2\C(=O)NC(=O)N(c3ccc(Cl)cc3)C2=O)c(C)n1-c1cccc(C(=O)O)c1	5%	3%	8%	/	/	/	/	-2%
35	CCc1ccc(NC(=O)CN2C(=O)CSc3ccc(S(=O)(=O)N(C)C)cc32)cc1	/	/	/	-1.7%	?	/	6%[46.1 µM]	-19%
36	O=C(N/N=C/c1ccc[nH]1)c1cc(-c2cccs2)nc2ccccc12	12%	-5%	-4%	/	/	?	?	?
37	CC(C)CCNC(=O)c1cc(S(=O)(=O)N2CCCCC2)ccc1N1CCOCC1	-2%	-3%	9%	/	/	/	/	-6%
38	COc1ccccc1/C=N/NC(=O)C(=O)Nc1ccccc1OC(F)(F)C(F)F	-5%	20%	0%	-6.7%	-6%	?	-5%	0%
39	CC(C)OC(=O)[C@H]1[C@H](c2ccc(Cl)cc2)[C@@](C#N)(C(N)=O)[C@@H]2C=CC(C(N)=O)=CN21	12%	?	1%	-9.5%	2%	-5%&-5%	0%	-23%
40	COc1ccc(C(=O)Nc2ccc(OCc3cc(=O)n4ccccc4n3)cc2)cc1	/	/	/	3.5%	8%	/	2%[46.1 µM]	-4%
41	CCCC(=O)Nc1cc(C(=O)O)ccc1S(=O)(=O)c1ccc(C)cc1	0%	-9%	6%	-1.2%	8%	20%	-1%	-6%
42	CCOC(=O)C1(CC2CCCCO2)CCN(Cc2ccc(OC)cc2F)CC1 (stereo not drawn)	5%	0%	5%	/	/	?	?	-30%
43	O=c1oc2ccccc2c(N2CCCCC2)c1[N+](=O)[O-]	-4%	2%	-6%	-4.1%	10%	5%	3%	?
44	Cc1ccc(C(=O)OCC(=O)NC(=O)Cc2ccccc2)c(O)c1	1%	5%	0%	/	/	/	/	2%
45	COc1cccc(N2CCN(C(=O)CNC(=O)c3sc4ccccc4c3Cl)CC2)c1	18%	-5%	-10%	/	/	-17%	12%	-22%
46	COCCCNS(=O)(=O)c1ccc2c3c(cccc13)C(=O)S2	-10%	-25%	-10%	-7.8%	-6%	-27%	-6%	9%
47	O=C(C1CC1)N1CCN(c2nc3ccccc3s2)CC1	-12%	-1%	-5%	-1.1%	4%	14%	10%	/
48	C/C(=N/Nc1ccccc1C(=O)O)c1cccs1	-98%	5%	10%	/	/	6%	?	81%[activator]
49	CC1=C(C(=O)N2CCOCC2)C(c2cc(C)cs2)NC(=O)N1 (stereo not drawn)	16%	-3%	-1%	4.9%	0%	15%[46.1 µM]	-24%	-13%
50	Cc1cc(Br)cc(C)c1NC(=O)c1ccccc1[N+](=O)[O-]	1%	-8%	15%	-5.4%	-19%	?	-7%	-15%

# Next part
no.	Compound	NS1 inh	SARS PLP yeast	RE007 growth inh	Cruzain inh Det	Cruzain inh noDet	MARV entry inh	Lassa entry inh	2A StopGo
51	CCOC(=O)C1=C(c2ccccc2)N=C2SCC(=O)N2C1c1ccc(OCC)c(OCC)c1 (stereo not drawn)	9%	-4%	20%	-1.9%	28%	2%[46.1 µM]	2%	11%
52	O=C(N(c1ccccc1)c1ccccc1)n1ccnc1	-9%	-46%	-2%	-1.4%	20%	0%	4%	-10%
53	Cc1cc(NC(=O)C(C)Oc2ccc(Cl)cc2Cl)n(-c2ccccc2)n1 (stereo not drawn)	-62%	-11%	12%	-2.1%	27%	?	-22%	-17%
54	CCCOc1ccc(N2CC(C(=O)Nc3ccccc3OC)CC2=O)cc1 (stereo not drawn)	-3%	9%	11%	0.1%	1%	19%	2%	-11%
55	Cc1ccc(C(=O)OCC(=O)c2cc(C)n(CC3CCCO3)c2C)cc1 (stereo not drawn)	1%	-2%	14%	/	/	?	-10%	-13%
56	O=C(Nc1ccc(N2CCOCC2)c(Cl)c1)c1ccc(Cl)cc1	/	1%	0%	/	/	2%	-11%	?
57	O=C(COc1ccc(Cl)cc1)NNC(=O)c1ccc2c(=O)n3c(nc2c1)CCC3	/	0%	6%	/	/	-10%	-1%	-10%
58	Cc1ccccc1CN1CCN(CC(=O)NCc2ccccc2)C1=O	3%	3%	0%	1.2%	?	0%	-12%	12%
59	O=C(O)C1CN(CCCP(=O)(O)O)CCN1 (stereo not drawn)	?	/	/	5.9%	1%	?	6%	/

# Assay outcomes as filed in PubChem.
